# A1 apoptosis 2 – A1 inhibitors via caspase activation, primary screen, cell-based, luminescence, HTS, two replicates; MEF A1-2A-BIM cells, caspase-Glo luminescence, 3 h; percent of clofoctol response, DMSO zero; caspase activation, % (no concentration beside the values); 24,000 tested, under 10 active; AID 2465, 2010; in the data active = caspase activation above about 5.9%;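 also: wells of about 30 µL received 50 nL stock; the first replicate is given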
#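 Evaluation: Caspase-3/7 activity from luminescence increase | Assay system: A1-2A-BIM mouse embryonic fibroblasts | Quantity: 2500 MEF cells/well | Medium: RPMI-1640 plus 10% FBS | Detection: Caspase-Glo 3/7 luminescence, 1 h at room temperature | Dosing: 50 nL compound per well, pinned | Timing: Cells settled overnight, compound exposure 3 h at 37 °C, 5% CO2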
# Numbers without * were called inactive. Only part of the results is shown; count on the stated rates, not on these rows.
# The first 3 compounds, to show the layout:
SMILES,A1 apoptosis 2
C[C@@H]1CCCCO[C@H](CN(C)C(=O)c2ccncc2)[C@H](C)CN([C@H](C)CO)C(=O)c2cc(NC(=O)NC3CCCCC3)ccc2O1,0.5
COc1ccc(S(=O)(=O)Nc2ccc3c(c2)CC(=O)N([C@@H](C)CO)C[C@@H](C)[C@H](CN(C)C)O3)cc1,-0.4
C[C@H]1CN([C@@H](C)CO)C(=O)Cc2cc(NC(=O)CCN3CCOCC3)ccc2O[C@@H]1CN(C)Cc1ccc(-c2ccccc2)cc1,-0.7

# The whole of this part, from the start:
SMILES,A1 apoptosis 2
C[C@@H]1CCCCO[C@H](CN(C)C(=O)c2ccncc2)[C@H](C)CN([C@H](C)CO)C(=O)c2cc(NC(=O)NC3CCCCC3)ccc2O1,0.5
COc1ccc(S(=O)(=O)Nc2ccc3c(c2)CC(=O)N([C@@H](C)CO)C[C@@H](C)[C@H](CN(C)C)O3)cc1,-0.4
C[C@H]1CN([C@@H](C)CO)C(=O)Cc2cc(NC(=O)CCN3CCOCC3)ccc2O[C@@H]1CN(C)Cc1ccc(-c2ccccc2)cc1,-0.7
C[C@@H]1CCCCO[C@H](CN(C)C(=O)NC2CCCCC2)[C@@H](C)CN([C@@H](C)CO)C(=O)c2cc(NC(=O)CCC(F)(F)F)ccc2O1,-0.6
C[C@@H]1CN([C@@H](C)CO)C(=O)c2cc(NC(=O)C3CC3)ccc2O[C@@H]1CN(C)S(=O)(=O)c1cn(C)cn1,-0.8
Cc1ccc(S(=O)(=O)N(C)C[C@H]2Oc3ccc(NC(=O)c4ccncc4)cc3CC(=O)N([C@H](C)CO)C[C@H]2C)cc1,-0.9
C[C@@H]1CCCCO[C@@H](CN(C)Cc2ccccc2)[C@H](C)CN([C@@H](C)CO)C(=O)c2cc(NC(=O)CCCN(C)C)ccc2O1,0.2
C[C@@H]1CN([C@H](C)CO)C(=O)Cc2cc(NS(=O)(=O)c3cccs3)ccc2O[C@@H]1CN(C)C(=O)Nc1ccc2c(c1)OCO2,0.6
C[C@H](CO)N1C[C@H](C)[C@@H](CN(C)Cc2ccc3c(c2)OCO3)Oc2ccc(NC(=O)CCCCCC(=O)Nc3ccccc3N)cc2C1=O,0.7
CC(C)NC(=O)N(C)C[C@@H]1Oc2ccc(NS(C)(=O)=O)cc2C(=O)N([C@H](C)CO)C[C@H]1C,-0.6
Cc1ccc(S(=O)(=O)N(C)C[C@H]2Oc3c(NC(=O)CCCCCC(=O)Nc4ccccc4N)cccc3C(=O)N([C@H](C)CO)C[C@H]2C)cc1,0.6
Cc1ccc(CN(C)C[C@H]2OCc3cnnn3CCCC(=O)N([C@@H](C)CO)C[C@H]2C)cc1,-0.5
C[C@@H]1CN([C@@H](C)CO)C(=O)c2cc(NC(=O)CCN3CCOCC3)ccc2O[C@@H]1CN(C)S(=O)(=O)c1cn(C)cn1,-0.6
C[C@@H]1CN([C@@H](C)CO)C(=O)c2cc(NC(=O)CCC(F)(F)F)ccc2O[C@@H](C)CCCCO[C@H]1CN(C)S(=O)(=O)c1ccc(F)cc1,1.1
C[C@H]1CN([C@@H](C)CO)C(=O)c2cccc(NS(=O)(=O)c3ccc(F)cc3)c2O[C@@H]1CN(C)CC1CC1,-0.3
N#Cc1ccc(/C=N/NC(=O)c2ccccn2)cc1,-9.1
C[C@H](CO)N1C[C@H](C)[C@@H](CN(C)Cc2ccc3c(c2)OCO3)Oc2ccc(NC(=O)CCN3CCOCC3)cc2CC1=O,0.7
O=C(O)CCCCCC(=O)N/N=C/c1ccc(N(c2ccccc2)c2ccccc2)cc1,0.8
COc1ccc(S(=O)(=O)Nc2ccc3c(c2)CC(=O)N([C@H](C)CO)C[C@@H](C)[C@@H](CN(C)Cc2ccc(Oc4ccccc4)cc2)O3)cc1,0.3
C[C@H](CO)N1C[C@H](C)[C@@H](CN(C)C(=O)Nc2ccccc2)Oc2c(cccc2N(C)C)C1=O,-1.0
CNC[C@H]1Oc2c(N)cccc2C(=O)N([C@@H](C)CO)C[C@@H]1C,-0.1
C[C@@H]1CCCCO[C@@H](CN(C)S(C)(=O)=O)[C@@H](C)CN([C@H](C)CO)C(=O)c2cc(NC(=O)Nc3ccccc3)ccc2O1,0.2
CC(C)NC(=O)Nc1ccc2c(c1)CC(=O)N([C@@H](C)CO)C[C@@H](C)[C@@H](CN(C)Cc1ccc(-c3ccccc3)cc1)O2,-0.2
CC(C)NC(=O)Nc1ccc2c(c1)CC(=O)N([C@@H](C)CO)C[C@H](C)[C@@H](CN(C)S(C)(=O)=O)O2,0.8
C[C@@H]1CN([C@H](C)CO)C(=O)c2cccc(NC(=O)C3CCCCC3)c2O[C@@H]1CN(C)S(=O)(=O)c1cccs1,0.4

# Next section.
SMILES,A1 apoptosis 2
COc1ccc(S(=O)(=O)N(C)C[C@@H]2OCCCC[C@@H](C)Oc3ccc(NS(C)(=O)=O)cc3C(=O)N([C@@H](C)CO)C[C@H]2C)cc1,-0.6
Cc1noc(C)c1S(=O)(=O)Nc1cccc2c1O[C@H](CN(C)S(=O)(=O)c1cccs1)[C@H](C)CN([C@@H](C)CO)C2=O,-1.0
Cc1ccc(S(=O)(=O)N(C)C[C@H]2Oc3c(NC(=O)C4CC4)cccc3C(=O)N([C@@H](C)CO)C[C@@H]2C)cc1,0.1
C[C@@H]1CCCCO[C@@H](CN(C)S(=O)(=O)c2ccccc2)[C@H](C)CN([C@@H](C)CO)C(=O)c2cc(NS(=O)(=O)c3ccc(F)cc3)ccc2O1,-1.9
C[C@H](CO)N1C[C@H](C)[C@H](CN(C)Cc2ccccc2)Oc2c(NC(=O)C3CCOCC3)cccc2C1=O,-0.3
C[C@@H]1CCCCO[C@@H](CN(C)C(=O)CCCN(C)C)[C@@H](C)CN([C@H](C)CO)C(=O)c2cc(NS(=O)(=O)c3ccccc3)ccc2O1,-1.0
Cc1noc(C)c1NC(=O)N(C)C[C@@H]1Oc2ccc(NC(=O)Nc3ccc(C(F)(F)F)cc3)cc2C(=O)N([C@@H](C)CO)C[C@@H]1C,1.2
C[C@@H]1CN([C@@H](C)CO)C(=O)c2cccc(NC(=O)Nc3ccccc3)c2O[C@H]1CN(C)C(=O)Nc1ccc2c(c1)OCO2,0.2
C[C@@H]1CCCCO[C@@H](CN(C)CC2CCCCC2)[C@H](C)CN([C@@H](C)CO)C(=O)c2cc(NC(=O)CCC(F)(F)F)ccc2O1,-0.9
C[C@H](CO)N1C[C@H](C)[C@@H](CN(C)S(=O)(=O)c2cn(C)cn2)Oc2ccc(NS(=O)(=O)c3ccc(F)cc3)cc2C1=O,-0.3
COc1ccc([Si](C)(C)[C@H]2[C@H](CCn3cc(CCO)nn3)O[C@@]3(C(=O)N(Cc4ccc(N5CCC5=O)cc4)c4ccccc43)[C@@H]2C)cc1,-0.9
Cc1noc(C)c1S(=O)(=O)N(C)C[C@H]1OCc2cn(nn2)CCCC(=O)N([C@@H](C)CO)C[C@@H]1C,-1.0
C[C@@H]1CCCCO[C@@H](CN(C)C(=O)Cc2ccccc2)[C@H](C)CN([C@@H](C)CO)C(=O)c2cc(NC(=O)Nc3ccc4c(c3)OCO4)ccc2O1,0.5
Cc1noc(C)c1NC(=O)Nc1ccc2c(c1)CC(=O)N([C@@H](C)CO)C[C@@H](C)[C@@H](CN(C)S(=O)(=O)c1ccccc1)O2,-0.4
Cc1noc(C)c1S(=O)(=O)N(C)C[C@H]1Oc2ccc(NC(=O)Nc3ccc(C(F)(F)F)cc3)cc2CC(=O)N([C@H](C)CO)C[C@@H]1C,1.2
COc1ccc(NC(=O)Nc2cccc3c2O[C@H](CN(C)C(=O)Nc2ccccc2)[C@H](C)CN([C@@H](C)CO)C3=O)cc1,-0.8
C[C@H](CO)N1C[C@H](C)[C@H](CN(C)C(=O)Nc2ccc3c(c2)OCO3)OCCCC[C@H](C)Oc2ccc(NS(=O)(=O)c3ccccc3)cc2C1=O,-0.5
COc1ccc(S(=O)(=O)N(C)C[C@H]2Oc3ccc(NC(=O)Nc4ccc5c(c4)OCO5)cc3CC(=O)N([C@@H](C)CO)C[C@@H]2C)cc1,0.0
C[C@H]1CN([C@@H](C)CO)C(=O)CCCn2cc(nn2)CO[C@H]1CN(C)C(=O)Nc1ccccc1,-0.4
COc1ccc(S(=O)(=O)N(C)C[C@@H]2OCCCC[C@@H](C)Oc3ccc(NC(=O)C4CCCCC4)cc3C(=O)N([C@@H](C)CO)C[C@@H]2C)cc1,-1.1
CC(C)NC(=O)N(C)C[C@H]1Oc2ccc(NC(=O)Nc3ccc4c(c3)OCO4)cc2C(=O)N([C@H](C)CO)C[C@@H]1C,-0.7
C[C@@H]1CCCCO[C@H](CN(C)Cc2ccc(C(=O)O)cc2)[C@H](C)CN([C@H](C)CO)C(=O)c2cc(NC(=O)Nc3ccc(F)cc3)ccc2O1,-1.0
O=C(NO)c1ccc(C(=O)N/N=C/c2cc(O)ccc2[N+](=O)[O-])cc1,0.4
Cc1noc(C)c1NC(=O)N(C)C[C@H]1Oc2ccc(N(C)C)cc2CC(=O)N([C@H](C)CO)C[C@H]1C,-1.5
O=C(C1=C[C@H](c2csc3ccccc23)C[C@H](OCCCCO)O1)N1CCOCC1,0.8

# Remaining list, next part.
SMILES,A1 apoptosis 2
C[C@@H]1CCCCO[C@H](CN(C)Cc2ccccc2)[C@H](C)CN([C@H](C)CO)C(=O)c2cc(NC(=O)NC3CCCCC3)ccc2O1,0.9
Cc1ccc(S(=O)(=O)Nc2ccc3c(c2)C(=O)N([C@H](C)CO)C[C@H](C)[C@H](CN(C)Cc2ccc(C(F)(F)F)cc2)O3)cc1,0.3
Cc1noc(C)c1NC(=O)Nc1cccc2c1O[C@@H](CN(C)S(=O)(=O)c1cccs1)[C@H](C)CN([C@@H](C)CO)C2=O,0.9
C[C@@H]1CN([C@@H](C)CO)C(=O)c2cccc(NS(=O)(=O)c3ccc(Cl)cc3)c2O[C@H]1CN(C)Cc1ccc(Oc2ccccc2)cc1,0.7
C[C@H]1CN([C@@H](C)CO)C(=O)CCCn2cc(nn2)CO[C@@H]1CN(C)C(=O)c1ccc(N2CCN(C)CC2)cc1,0.7
C[C@@H]1CN([C@@H](C)CO)C(=O)c2cc(NS(=O)(=O)c3ccccc3)ccc2O[C@@H]1CN(C)Cc1ccncc1,0.7
C[C@H](CO)N1C[C@H](C)[C@@H](CN(C)Cc2ccc(Cl)c(Cl)c2)Oc2ccc(NC(=O)Nc3ccccc3)cc2C1=O,0.1
Cc1noc(C)c1NC(=O)Nc1ccc2c(c1)C(=O)N([C@H](C)CO)C[C@@H](C)[C@H](CN(C)C(=O)Nc1ccc(C(F)(F)F)cc1)O2,1.0
COc1ccc(NC(=O)N(C)C[C@H]2OCCCC[C@@H](C)Oc3ccc(NS(=O)(=O)c4ccc(F)cc4)cc3C(=O)N([C@@H](C)CO)C[C@@H]2C)cc1,-1.0
C[C@@H]1CCCCO[C@H](CN(C)C(=O)NC2CCCCC2)[C@@H](C)CN([C@@H](C)CO)C(=O)c2cc(NC(=O)c3ccccc3)ccc2O1,0.0
COc1ccc(NC(=O)Nc2ccc3c(c2)C(=O)N([C@@H](C)CO)C[C@@H](C)[C@H](CN(C)S(=O)(=O)c2ccc(Cl)cc2)OCCCC[C@@H](C)O3)cc1,-0.2
C[C@@H]1CN([C@H](C)CO)C(=O)CCCn2cc(nn2)CO[C@H]1CN(C)S(=O)(=O)c1cn(C)cn1,-0.5
COc1ccc(S(=O)(=O)Nc2ccc3c(c2)C(=O)N([C@H](C)CO)C[C@H](C)[C@@H](CN(C)C(=O)Nc2ccc4c(c2)OCO4)OCCCC[C@@H](C)O3)cc1,-0.4
C[C@@H]1CN([C@H](C)CO)C(=O)c2cccc(NS(=O)(=O)c3ccccc3)c2O[C@H]1CN(C)C(=O)Nc1ccc2c(c1)OCO2,-0.3
C[C@H]1CCCCO[C@@H](CN(C)Cc2ccncc2)[C@@H](C)CN([C@@H](C)CO)C(=O)c2cc(NC(=O)c3ccncc3)ccc2O1,0.1
C[C@H](CO)N1C[C@H](C)[C@H](CN(C)Cc2ccc(C(F)(F)F)cc2)Oc2ccc(NS(C)(=O)=O)cc2C1=O,1.8
C[C@H]1CN([C@@H](C)CO)C(=O)Cc2cc(N(C)C)ccc2O[C@H]1CN(C)Cc1ccc(Cl)c(Cl)c1,-0.9
C[C@@H]1CN([C@@H](C)CO)C(=O)Cc2cc(NS(C)(=O)=O)ccc2O[C@H]1CN(C)S(=O)(=O)c1cn(C)cn1,1.5
C[C@@H]1CN([C@@H](C)CO)C(=O)c2cc(NC(=O)CCC(F)(F)F)ccc2O[C@@H](C)CCCCO[C@H]1CN(C)S(=O)(=O)c1ccccc1,-1.7
COc1ccc(CN(C)C[C@H]2Oc3ccc(NC(=O)CCN4CCOCC4)cc3C(=O)N([C@@H](C)CO)C[C@H]2C)cc1,1.3
Cc1noc(C)c1NC(=O)N(C)C[C@@H]1Oc2c(cccc2N(C)C)C(=O)N([C@H](C)CO)C[C@H]1C,0.6

# An excerpt from above in order of number of heavy atoms, rising:
SMILES,A1 apoptosis 2
COc1ccc(CN(C)C[C@H]2Oc3ccc(NC(=O)CCN4CCOCC4)cc3C(=O)N([C@@H](C)CO)C[C@H]2C)cc1,1.3
Cc1noc(C)c1NC(=O)Nc1ccc2c(c1)C(=O)N([C@H](C)CO)C[C@@H](C)[C@H](CN(C)C(=O)Nc1ccc(C(F)(F)F)cc1)O2,1.0
COc1ccc(NC(=O)Nc2ccc3c(c2)C(=O)N([C@@H](C)CO)C[C@@H](C)[C@H](CN(C)S(=O)(=O)c2ccc(Cl)cc2)OCCCC[C@@H](C)O3)cc1,-0.2

# Structures above that have a COOH group (2):
SMILES,A1 apoptosis 2
O=C(O)CCCCCC(=O)N/N=C/c1ccc(N(c2ccccc2)c2ccccc2)cc1,0.8
C[C@@H]1CCCCO[C@H](CN(C)Cc2ccc(C(=O)O)cc2)[C@H](C)CN([C@H](C)CO)C(=O)c2cc(NC(=O)Nc3ccc(F)cc3)ccc2O1,-1.0
